Screens deposited in PubChem BioAssay by National Center for Advancing Translational Sciences (NCATS).
VACV mCherry inh: qHTS for Stage-Specific Inhibitors of Vaccinia Orthopoxvirus: mCherry Reporter Primary qHTS; Vaccinia virus mCherry reporter infection, fluorescence; about a quarter of the inactives have no number; Potency, µM (series often up to 36.5 µM), for the others: at the top dose activity change, negative = inhibition, usual class: inhibitors; hit rate 0.63% among 310,000; AID 720579, 2013; active = well fitted inhibition curve with a large enough effect; inconclusive = small, poorly fitted or top-dose-only effect; inactive = no such curve, though single readings can be large or run the other way; tested in A549 cells; further: nearly all actives have a fitted effect of over 35% in size; inactives centre near -10
Vaccinia Venus: qHTS for Stage-Specific Inhibitors of Vaccinia Orthopoxvirus: Venus Reporter Primary qHTS; Vaccinia virus Venus reporter expression, fluorescence; Potency, µM (series often up to 36.5 µM), without a hit: at the top dose activity change, negative = inhibition, actives largely listed as inhibitors; hit rate 0.46% among 330,000; active means well fitted inhibition curve with a large enough effect; inconclusive means small, poorly fitted or top-dose-only effect; inactive means no such curve, though single readings can be large or run the other way; tested in A549 cells; further: nearly all actives have a fitted effect of over 30% in size; inactives centre near -10
Active calls of the source: *; i = inactive; ? = inconclusive; · = not tested or not shown. On the % scale 0 is the no-effect control and ±100 the full control effect; potency means the concentration at half of the fitted maximal effect. Random draw from the library (roughly 0.87% active in at least one column).

SMILES	VACV mCherry inh	Vaccinia Venus
CCc1nc2ccc(C(=O)Nc3cccc(NS(C)(=O)=O)c3)cn2c1N(CC)CCOC	2%	-4%
O=C(CNC(=O)c1cccs1)NCC(=O)OCc1cccc(Cl)c1	i	-15%
NC(=O)c1nsc(C(=O)N(c2ccc3c(c2)OCCO3)C(C(=O)NCC2CCCO2)c2ccc(F)cc2)c1N (stereo unspecified)	-13%	3%
Cc1ccc(S(=O)(=O)N2C[C@H]3n4c(=O)ccc(=O)n4C[C@H](OC(=O)NC4CCCC4)[C@@]3(O)C2)cc1	-13%	-20%
CC(=O)NS(=O)(=O)c1ccc(NC(=O)/C=C/c2ccc(C)o2)cc1	3%	7%
Cc1c(C(=O)N(C)C)sc2nc(-c3ccccn3)[nH]c(=O)c12	·	-9%
CC(=O)N1CCC(C(=O)N2CCN(S(=O)(=O)c3ccc(Cl)s3)CC2)CC1	-13%	-23%
O=C(CN1C(=O)NC2(CCCCC2)C1=O)Nc1cccc(S(=O)(=O)N2CCCC2)c1	i	-9%
O=C(c1ccc(S(=O)(=O)Nc2cccc(C(F)(F)F)c2)cc1)N1CCC1	i	-16%
CCN1C(=O)[C@H]2[C@@H](c3ccc(C)cc3)N3C(=O)N(c4cccc(Cl)c4)C(=O)[C@@]3(Cc3ccccc3)[C@H]2C1=O	i	-12%
Cc1cc(C(=O)NCc2nnc3n2CCN(Cc2ccc(F)cc2F)CC3)c(C)o1	-2%	1%
COc1cccc(Cn2c(=O)c3ccccc3n3nc(C)cc23)c1	-9%	-15%
O=C(CCc1nc(-c2ccccc2Cl)no1)NC1CCCCC1	1%	-4%
O=C(COc1ccc(CO)cc1)Nc1ccc(F)cc1	-13%	-13%
CC1CC(C)CN(c2ccc(C(=O)OCC(=O)NC3CCCc4ccccc43)cc2[N+](=O)[O-])C1 (stereo unspecified)	·	-1%
CCCOc1ccc(C(=O)Nc2ccc3oc(-c4ccc5ccccc5c4)nc3c2)cc1	-9%	2%
CCn1c(=O)c2cc(C(=O)NCCc3ccc(OC)c(OC)c3)sc2c2ccccc21	-13%	-8%
Cc1cc(C(=O)CSc2nnnn2C)c(C)n1-c1cccc(F)c1	-13%	-12%
CN(C)S(=O)(=O)c1cccc(NC(=O)COC(=O)CCc2nc3ccccc3s2)c1	·	-7%
COc1ccc(NC2=C(Cl)C(=O)N(CCc3ccccc3)C2=O)c(OC)c1	-4%	-16%

Ordered by length of the SMILES (smallest number first): some entries from above.
SMILES	VACV mCherry inh	Vaccinia Venus
CCCOc1ccc(C(=O)Nc2ccc3oc(-c4ccc5ccccc5c4)nc3c2)cc1	-9%	2%
CN(C)S(=O)(=O)c1cccc(NC(=O)COC(=O)CCc2nc3ccccc3s2)c1	·	-7%
CC1CC(C)CN(c2ccc(C(=O)OCC(=O)NC3CCCc4ccccc43)cc2[N+](=O)[O-])C1 (stereo unspecified)	·	-1%

Later entries:
SMILES	VACV mCherry inh	Vaccinia Venus
O=C1NC(=S)NC(=O)C1Nc1ccc(Cl)cc1	-14%	-3%
COc1cccc(CN(C(=O)COc2ccc(Cl)c(C)c2)C2CCS(=O)(=O)C2)c1 (stereo unspecified)	-3%	-14%
CCOc1ccc(NC(=O)[C@@H](NC(=O)c2ccccc2)[C@@H](C)CC)cc1	-5%	-16%
Cc1ccc(NC(=O)C2CC(=O)NC(N3CCc4ccccc43)=N2)cc1 (stereo unspecified)	-10%	-24%
CCCCOc1ccccc1NC(=O)Cn1c(-c2nonc2N)nc2ccccc21	4µM*	?
CC1(C(=O)NS(=O)(=O)c2ccccc2)CCN1C(=O)CCc1ccccc1 (stereo unspecified)	3%	-4%
COCCNC(=O)[C@H](C)[C@H]1C[C@]1(C)[C@H](NC(=O)OCc1ccccc1)c1ccccc1	-1%	-3%
CC(C)(C)c1cc(NCCCn2ccnc2)n2ncc(-c3ccccc3)c2n1	-15%	-27%
O=C1N/C(=C/c2cccs2)C(=O)N1Cc1ccc(F)cc1	0%	4%
CC(c1nccs1)N(C)C(=O)c1ccc(OC2CCN(CCc3ccccc3)CC2)cc1 (stereo unspecified)	-3%	-21%
Cc1ccccc1OCC(=O)NNC(=O)Cn1[nH]c(=O)c2ccccc2c1=O	i	-2%
COc1ccc(-c2nc3ccc(Cl)cn3c2Cc2ccsc2)cc1OC	26%	-9%
Cc1nc(-c2ccccc2)sc1CCNC(=O)c1ccco1	6%	3%
COc1ccc(CCNC(=O)C2CCC(CNS(=O)(=O)c3ccc(F)cc3)CC2)cc1OC (stereo unspecified)	-2%	-10%
O=c1c2ccccc2nc(SCc2cc([N+](=O)[O-])cc3c2OCOC3)n1-c1ccccc1	-8%	8%
CCO[C@@H]1OC(C(=O)NC2CC2)=C[C@H](C(C)(C)C)[C@H]1CCCO	i	-16%
CCOC(=O)c1cnc2c(cnn2C)c1NCc1ccc(OC)cc1	i	-13%
Cc1cccc2sc(NC(=O)CN3C(=O)c4ccccc4C3=O)nc12	-19%	-14%
Cc1ccc(CNC(=O)C(=O)NCC(c2ccco2)S(=O)(=O)c2ccccc2)cc1 (stereo unspecified)	-10%	-12%
COc1ccc(N(CC(=O)NCCSCc2ccco2)S(=O)(=O)c2ccccc2)cc1OC	-13%	0%
Cc1cc(C(F)(F)F)n(-c2nc(C(=O)O)cs2)n1	i	-6%
Cc1nnc(NC(=O)CSc2nccn2-c2cccc(C)c2C)s1	1%	-25%
CNc1nc(NCCCN2CCCC2=O)c2sccc2n1	-16%	-6%
Cc1c(NC(=O)CSc2ccccn2)c(=O)n(-c2ccccc2)n1C	-14%	-21%
Cc1ccc(CCNc2nc3c(S(=O)(=O)c4ccc(C)cc4)nnn3c3ccsc23)cc1	i	-15%
COC(=O)c1sccc1-n1cccc1C(=O)C(=O)N1CCOCC1	i	-10%
O=C(Nc1ccccc1-c1nc2ccccc2s1)c1cccnc1	-6%	-15%
O=C(COC(=O)Cn1cc(C(F)(F)F)ccc1=O)NCc1ccccc1	-8%	1%
CCOc1ccc(-c2cncc3nccn23)cc1	4%	-1%
CNS(=O)(=O)c1ccc2ccccc2c1	-13%	-8%
CN1OC[C@@H]2CN(Cc3cc(Cl)cc(Cl)c3)[C@H](c3cccc(-c4ccc(C#N)cc4)c3)C[C@@H]21	-10%	-24%
CCOc1ccccc1N1CCN(C(=S)NCc2ccccc2)CC1	-7%	-13%
COc1cccc(C2CC(=O)N3CN(C4CCCCC4)CSC3=C2C#N)c1 (stereo unspecified)	-5%	9%
Cc1ccc(-c2nc3c(cnn3-c3ccccc3)c(=O)o2)cc1	-16%	-8%
O=C/C(=C\Nc1ccccn1)c1nc2cc(Cl)ccc2o1	-8%	-17%
Cc1cc(C)n(-c2ccc(C(=O)OC(C)C)cc2)n1	i	-11%
CCOc1ccc(S(=O)(=O)Nc2ccc(C(=O)N/N=C(\C)c3ccc(-n4ccnc4)cc3)cc2)cc1	-19%	-16%
Cc1ccc(N(C(=O)c2ccncc2)C2C=CS(=O)(=O)C2)cc1 (stereo unspecified)	12%	-9%
CN(Cc1ccccc1)C(=O)COC(=O)/C=C/c1ccc2c(c1)OCO2	-19%	-20%
Cc1ccc2oc(C(=O)N(Cc3cccc(F)c3)C3CCS(=O)(=O)C3)c(C)c2c1 (stereo unspecified)	-4%	-17%

In the list so far, two contain a tert-butyl group:
SMILES	VACV mCherry inh	Vaccinia Venus
CC(C)(C)c1cc(NCCCn2ccnc2)n2ncc(-c3ccccc3)c2n1	-15%	-27%
CCO[C@@H]1OC(C(=O)NC2CC2)=C[C@H](C(C)(C)C)[C@H]1CCCO	i	-16%

(next part)
SMILES	VACV mCherry inh	Vaccinia Venus
COc1ccc(-c2ccc3c(c2)S(=O)(=O)c2cccc(C(=O)N4CCN(c5ccccn5)CC4)c2C3=O)cc1OC	i	-15%
CSc1ccccc1OCc1cc(C(=O)N2CCN(C)C(c3ccccc3)C2)no1 (stereo unspecified)	?	?
CCOC(=O)N1CCC(Nc2c(NCCCN(C)Cc3ccccc3)c(=O)c2=O)CC1	-16%	4%
CCC(C)N(C(=O)CSc1nc(-c2ccccc2)cs1)C1CCS(=O)(=O)C1 (stereo unspecified)	·	-12%
CCCn1nnc(NC(=O)c2ccc3c(c2)OCO3)n1	-13%	-15%
Cc1noc(C)c1CSCC(=O)N(CC(C)C)c1c(N)n(Cc2ccccc2)c(=O)[nH]c1=O	i	-8%
O=C(Nc1ccncc1)C1CCN(S(=O)(=O)c2cccs2)CC1	i	-5%
CCc1ccc(-n2c(=O)c3sc4ccccc4c3n(CC(=O)N(CC)Cc3ccccc3)c2=O)cc1	-3%	-7%
O=C(CCc1nnc(-c2ccsc2)o1)N1CCCCC1CCn1ccnc1 (stereo unspecified)	i	-6%
O=C(NC1CCCCC1)c1ccc([N+](=O)[O-])cc1	-17%	-10%

Another view of 3 compounds above:
CSc1ccccc1OCc1cc(C(=O)N2CCN(C)C(c3ccccc3)C2)no1 (stereo unspecified)
  VACV mCherry inh = ?	Vaccinia Venus = ?
CCOC(=O)N1CCC(Nc2c(NCCCN(C)Cc3ccccc3)c(=O)c2=O)CC1
  VACV mCherry inh = -16%	Vaccinia Venus = 4%
CCC(C)N(C(=O)CSc1nc(-c2ccccc2)cs1)C1CCS(=O)(=O)C1 (stereo unspecified)
  VACV mCherry inh = ·	Vaccinia Venus = -12%

Carrying on.
SMILES	VACV mCherry inh	Vaccinia Venus
O=C(O)CC1Sc2nc3ccccc3n2C1=O (stereo unspecified)	·	2%
CCOc1ccccc1CNC(=O)C1CCN(Cc2cc3ccccc3n2Cc2ccccc2)CC1	?	-11%
CSc1nccc(Oc2cccc(C#N)c2)n1	i	-9%
Cc1ccc2nc(SCC(=O)c3ccc4c(c3)OCO4)[nH]c2c1	i	-9%
CCCCCc1c(C)nc(Nc2ccccc2)[nH]c1=O	·	?
O=C1C2C3C=CC(C3)C2C(=O)N1CCN1CCN(S(=O)(=O)/C=C/c2ccccc2)CC1 (stereo unspecified)	i	-5%
COc1ccc(C)cc1S(=O)(=O)N1CCN(C(=O)c2ncoc2-c2ccc(C)cc2)CC1	-25%	-17%
CCOC(=O)C(NC(=O)c1ccccc1)=C1C=C(C)OC(C)=C1	·	0%
COc1cc2c(cc1OC)-c1nnc(-c3cccs3)n1C(C)(C)C2	i	-13%
O=C(NC1CCCCC1)C1c2ccccc2OCC(=O)N1Cc1ccco1 (stereo unspecified)	-8%	8%
COc1ccccc1CCC(=O)N1CCOc2c(cc(-c3cnc4ccccc4c3)cc2OC)C1	-12%	-7%
Cc1c(Cl)cnc(NC(=O)COC(=O)c2cccc(S(=O)(=O)N3CCc4ccccc4C3)c2)c1Cl	i	-10%
COc1cc(S(=O)(=O)N2CCC(c3nc4ccccc4s3)CC2)ccc1S(=O)(=O)NC1CCCC1	i	-1%
Cc1cc([N+](=O)[O-])nn1CCC(=O)Nc1nccs1	-14%	-15%
CC(=O)Nc1ccc(NC(=O)[C@@H](NC(=O)c2cccc(C)c2)C(C)C)cc1	-13%	-2%
CCc1ccccc1NC(=O)CN1C(=O)COc2ccc(S(=O)(=O)N3CCCCCC3)cc21	-20%	-14%

Part of the list above, with each value named.
mol: CN(C)S(=O)(=O)c1cccc(NC(=O)COC(=O)CCc2nc3ccccc3s2)c1
  VACV mCherry inh: ·	Vaccinia Venus: -7%
mol: COc1ccc(NC2=C(Cl)C(=O)N(CCc3ccccc3)C2=O)c(OC)c1
  VACV mCherry inh: -4%	Vaccinia Venus: -16%
mol: O=C1NC(=S)NC(=O)C1Nc1ccc(Cl)cc1
  VACV mCherry inh: -14%	Vaccinia Venus: -3%
